RE007 growth inh: qHTS Assay for Inhibitors of the HIV-1 protein Vpr. Potency, µM (series often up to 92.2 µM), for inactives: at the highest dose activity change, negative = less growth. S. pombe RE007 Vpr strain, BacTiter-Glo ATP luminescence, 24 h; control for the full effect not named in the record. 360,000 compounds, 0.21% hits; active = well fitted falling curve with a large enough effect; inconclusive = small, poorly fitted or top-dose-only effect; inactive = no such curve, though single readings can be large or run the other way;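 note: nearly all actives have a fitted effect of over 50% in size; the assay follows cell death caused by Vpr and the record does not say whether a fall means rescue or toxicity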
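Fission yeast RE007 carrying one integrated HIV-1 vpr copy, seeded at OD 0.01 in PMG+AL medium with 23 nL pinned compound. Grown 24 h at 30 degrees; viability read by BacTiter-Glo luminescence after 5 min.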
2A StopGo: High Throughput Screening for Foot and Mouth Disease Virus Antivirals. human cells with a luciferase reporter of 2A StopGo recoding; control for the full effect not named in the record. 410,000 compounds, 1.2% hits. Potency, µM (series often up to 57.9 µM), inactives show at the top dose signal change, negative = less light; active = well fitted falling curve with a large enough effect; inconclusive = small, poorly fitted or top-dose-only effect; inactive = no such curve, though single readings can be large or run the other way; tested in HEK293T cells; note: nearly all actives have a fitted effect of over 45% in size; luciferase light after 4 h
* = called active by the depositor; ? = inconclusive; [ ] = remark or other dose. % is set by controls: 0 for no effect and ±100 for the full control effect; potency is the fitted concentration of half-maximal effect.

# | molecule | RE007 growth inh | 2A StopGo
1 | CC1=C(C(=O)N(C(C)C)C(C)C)CC(CC(=O)NC2CCCCC2)C(=O)N1CCC1=CCCCC1 (configuration not stated) | 0% | 8%
2 | COc1ccc(NC(=O)c2cc(C3CCCCN3S(=O)(=O)c3ccccc3)on2)c(C)c1 (configuration not stated) | -8% | 0%
3 | O[C@H]1C[C@H](c2ccccc2)N(CC2CCCCC2)C[C@@H]1n1cc(C2CC2)nn1 | -4% | -7%
4 | O=C1CCC(C(=O)N2CCN(c3cnccn3)CC2)CN1CCc1ccccc1 (configuration not stated) | 13% | -21%
5 | COc1ccc(NC(=O)N(C)C[C@H]2Oc3ncc(C#C[C@@H](C)O)cc3C(=O)N([C@H](C)CO)C[C@H]2C)cc1 | 9% | -6%
6 | O=C(O)CN1CCN(CC(=O)O)CCN(CC(=O)O)CCN(CC(=O)O)CC1 | 3%[18.4 µM] | -21%
7 | COC(=O)CNC(=O)c1ccccc1 | -11% | -15%
8 | COc1ccc(C2=Nc3ccccc3N(C(=O)c3ccc4c(c3)OCO4)C2C(=O)Nc2c(C)cccc2C)cc1 (configuration not stated) | -6% | 10%
9 | C[C@H](c1ccccc1)N1C[C@H](COCc2ccccc2)Oc2cc(N3CCC[C@H]3CO)ccc2S1(=O)=O | 2% | 34%[activator]
10 | COc1ccc(C(CNC(=O)c2ccc(OCc3cscn3)cc2)N2CCCC2)cc1 (configuration not stated) | -3% | -24%
11 | COC(=O)C[C@@H]1CC[C@@H](NC(=O)C2CCC2)[C@@H](CO)O1 | 10% | -12%
12 | COC(=O)[C@]12CCCCC=C1N(Cc1cccc3ccccc13)C(=O)[C@H](CC(=O)NCC1CCCCC1)C2 | -8% | -2%
13 | C[C@@H](CO)NC(=O)[C@H]1O[C@@H](n2ccc(=O)[nH]c2=O)[C@H](O)[C@@H]1O | 6% | -12%
14 | COCCCNC(=O)c1ccc2sc([C@@H]3O[C@H](CO)[C@H](O)[C@H](O)[C@H]3O)nc2c1 | 3%[18.4 µM] | -6%
15 | COc1cccc(C(O)c2ncc(-c3ccccc3OC)[nH]2)c1 (configuration not stated) | ? | -4%
16 | CCOC(=O)C(C#N)C(=N)C1C(=O)OC2CCCCC21 (configuration not stated) | 10% | -17%
17 | N#CC(OC(=O)c1ccccc1)c1ccccc1 (configuration not stated) | -11% | -7%
18 | CN(C)C(=O)c1cccc(-c2cnc3c(NC=O)cc(-c4ccc(N(C)C)cc4)cn23)c1 | -9% | ?
19 | CC(=O)c1ccc(-c2cnc3c(NC=O)cc(-c4ccccc4Oc4ccccc4)cn23)cc1 | -8%[18.4 µM] | ?
20 | O=[N+]([O-])c1ccc2c(c1)C(N1CCN(CCO)CC1)Cc1ccc(F)cc1S2 (configuration not stated) | -19% | -14%
21 | Cc1nc2ccccn2c(=O)c1NC(=O)COc1ccccc1 | 7% | -7%
22 | Nc1ccn([C@@H]2O[C@H](C(=O)NCCc3ccc(F)cc3)[C@@H](O)[C@H]2O)c(=O)n1 | -5% | -22%
23 | O=C1CCCCc2cc(O)c(O)cc21 | -10% | ?
24 | COCCNC(=O)C1C(=O)Nc2ccccc2C(=O)N1Cc1ccccc1 (configuration not stated) | -12% | -15%
25 | CCOC(=O)[C@]12Cc3cc(C)ccc3[C@H]1N(Cc1ccccc1)C(=O)c1cc(OC)ccc12 | -20% | ?
26 | COc1ccc(C2CC(c3cccc([N+](=O)[O-])c3)=NN2/C(C)=C/C(C)=O)cc1 (configuration not stated) | -21% | 0%
27 | O=C1CC(=Nc2ccc([N+](=O)[O-])cc2)NN1c1c(Cl)cc(Cl)cc1Cl | -17% | 12%
28 | c1ccc(CCNc2cc(-c3ccc4ccccc4c3)nc3ccnn23)nc1 | 5% | -2%
29 | CC(C)(C)C1CCN2CCC[C@](c3ccccc3)(C1)C2OCCCO (some centres not stated) | -18% | -18%
30 | O=C(Nc1c(-c2ccccc2)[nH][nH]c1=O)c1ccc(-c2ccccc2)cc1 | -27% | 13%
31 | CCCCNC(=O)C1(C)CCCCN1C(=O)c1ccc2sccc2c1 (configuration not stated) | -5%[18.4 µM] | 0%
32 | Nc1ccn([C@@H]2O[C@H](CNC(=O)[C@@H](Cc3cccnc3)NC=O)[C@@H](O)[C@H]2O)c(=O)n1 | 5% | 17%
33 | COc1ccc(CN2C(=O)C(CC(=O)NCC3CCCCC3)CC(C(=O)N(C(C)C)C(C)C)=C2C)cc1 (configuration not stated) | 3% | 1%
34 | c1cc2c(cc1N1CCCCC1)CNCc1cnnn1-2 | -14% | -14%
35 | O[C@@H]1[C@@H](O)C=C2CCN3Cc4cc5c(cc4[C@H]1C23)OCO5 (some centres not stated) | -3% | ?
36 | Cc1cc(C)n2c(Nc3ccc4c(c3)OCCO4)c(-c3ccc(F)cc3)nc2n1 | -20% | 21%
37 | CCn1c(C)cc(C(=O)CSc2nnc(C3CC3)n2C2CC2)c1C | 3% | 13%
38 | CCCCCNC(=O)C(c1ccc(OC)cc1)n1c(=O)c(-c2ccco2)nc2ccccc21 (configuration not stated) | -15% | -3%
39 | COc1ccc(NC(=O)CSc2nnnn2C2CCCC2)cc1S(=O)(=O)N1CCOCC1 | -3% | -22%
40 | CCOCCC(=O)Nc1ccc2c(c1)c(=O)n(C)n2CC=C(C)C | 22%[18.4 µM] | -7%
41 | CCNC(=O)C1(C)CCCN(C(=O)c2c(C)noc2C)C1 (configuration not stated) | -8% | -7%
42 | CC1(C(=O)NS(=O)(=O)c2ccc(Cl)cc2)CCN1C(=O)CCc1ccc(Cl)cc1Cl (configuration not stated) | 4% | -3%
43 | COC(=O)C1=CN(c2ccc(C(C)(C)C)cc2)C(N)=C(C#N)C1c1ccccc1F (configuration not stated) | 9% | -13%
44 | CCc1nc2ccc(C(=O)N3CCN(S(=O)(=O)CC)CC3)cn2c1N(C=O)Cc1ccc(OC)cc1 | 7% | -2%
45 | CCOC(=O)C1=CC[C@@H](c2ccc(OC)cc2)N(S(=O)(=O)c2ccc(C)cc2)[C@H]1CC | 8% | -8%
46 | COc1cccc(NC(=O)N2CCc3nc(NCc4cccc(Oc5ccccc5)c4)ncc3C2)c1 | -25% | -62%
47 | Cc1ccc(S(=O)(=O)N(C)C[C@H]2Oc3cc(C#Cc4ccccc4)ccc3S(=O)(=O)N([C@H](C)CO)C[C@@H]2C)cc1 | -3% | 33%[activator]
48 | CCCS(=O)(=O)NC(=O)C1(C)CCN(C(=O)c2cc(-c3cccs3)oc2C)C1 (configuration not stated) | -22% | -13%
49 | COc1ccc(C(C)(O)c2nc(-c3ccccc3)cs2)cc1 (configuration not stated) | 8%[18.4 µM] | -17%
50 | COc1ccc(Nc2c(C3CC3)nc3nc(C)cc(C)n23)cc1 | ? | -14%
51 | Cc1ccc2ccccc2c1C(O)c1ncc(-c2cccc(C(F)(F)F)c2)[nH]1 (configuration not stated) | 32% | -7%
52 | CC1(C)CC(=O)C=C(c2n[nH]nc2C2CCCCC2)C1 | -5% | -11%
53 | CC(Cc1ccc(O)cc1)NCC(O)c1ccc(O)c(O)c1 (configuration not stated) | -12% | 0%
54 | CCC(=O)[C@@]1(C)[C@H](C)C[C@H]2[C@@H]3CCC4=CC(=O)C=C[C@]4(C)[C@H]3[C@@H](O)C[C@@]21C | -9% | 0%
55 | O=C(NCc1ccc(F)cc1F)[C@@H]1CCCN1C(=O)[C@@H]1CCCN1C(=O)c1ccc(Cl)cc1 | 10% | -14%
56 | C[C@@H]1CCCCO[C@H](CN(C)C(=O)C2CCCCC2)[C@@H](C)CN([C@H](C)CO)C(=O)c2cc(N(C)C)ccc2O1 | 28% | -13%
57 | COC(=O)c1ccc2nc(-c3ccc(Cl)cc3)c(Cc3cccc(F)c3)n2c1 | 11% | -13%
58 | Nc1ncnc2c1ncn2[C@@H]1O[C@H](C(=O)NS(=O)(=O)c2c(Cl)nc3sccn23)[C@@H](O)[C@H]1O | 3% | -18%
59 | CN1CCN(c2ccc(-c3cc(NC=O)c4ncc(-c5ccccc5)n4c3)cc2)CC1 | -22%[18.4 µM] | 0%
60 | CCCOc1ccc(F)cc1-c1cc(C(=O)NCc2cc(OC)cc(OC)c2)[nH]n1 | 13% | -18%

New compounds follow
# | molecule | RE007 growth inh | 2A StopGo
61 | N#Cc1ccc(C(S(=O)(=O)Cc2ccccc2)S(=O)(=O)Cc2ccccc2)cc1 | -3% | -26%
62 | COCC(C)n1c(SCC(=O)NC2CCCCC2)nc2ccccc2c1=O (configuration not stated) | -12% | -22%
63 | CC1(C(=O)NS(=O)(=O)c2ccccc2Cl)CCN1C(=O)CC1CC1 (configuration not stated) | -12%[18.4 µM] | ?
64 | CC(C)C(=O)N1CCC1(C)C(=O)Nc1ccc(-n2cncn2)cc1 (configuration not stated) | 15% | -7%
65 | Nc1ncnc2c1ncn2[C@@H]1O[C@H](C(=O)NS(=O)(=O)c2cccs2)[C@@H](O)[C@H]1O | 22% | -8%
66 | COc1cccc(-c2cccc(-c3nc(C(=O)NCc4ccc(Oc5ccccc5)cc4)cc4c3[C@H](CCO)N(S(=O)C(C)(C)C)C4)c2)c1 (some centres not stated) | 8% | -14%
67 | O=C(NCc1ccccn1)[C@@H]1CCCN1C(=O)[C@@H]1CCCN1C(=O)c1cccc(Cl)c1 | -3% | -6%
68 | C[C@@H]1CN([C@@H](C)CO)C(=O)CCCn2nncc2CO[C@@H]1CN(C)C(=O)Oc1ccc2ccccc2c1 | 2% | -8%
69 | COc1ccccc1CNC(=O)c1ccc2nc(C)c(N(C)Cc3ccc(NC(C)=O)cc3)n2c1 | -10% | -23%
70 | CCC(CC)C(=O)N(C)c1c(C)nc2c(OCc3ccc(OC(F)F)cc3)cccn12 | -20%[18.4 µM] | ?
71 | Cc1nc2ccccn2c(=O)c1NC(=O)c1ccc2c(c1)OCO2 | -6% | 0%
72 | Cc1ccc(C)c(S(=O)(=O)N2CCN(C(=O)CNC(=O)c3sc4ccccc4c3Cl)CC2)c1 | 1% | -21%
73 | CCOCCCn1c(SCC(=O)NC2CCCCC2)nc2ccccc2c1=O | -5% | -17%
74 | COc1cccc(C(C(=O)NCc2ccccc2)N2CCN(CCN3CCOCC3)CC2)c1OC (configuration not stated) | -1% | -13%
75 | CSc1ccc(NC(=O)C2(C)CCN2C(=O)c2sccc2C)cc1 (configuration not stated) | -4% | -10%
76 | COc1ccc(OC)c(NC(=O)C2(C)CCN2Cc2ccc(OC)c3ccccc23)c1 (configuration not stated) | -7%[18.4 µM] | 0%
77 | N[C@@H](CCC(=O)N[C@@H](CSN=O)C(=O)NCC(=O)O)C(=O)O | 0% | -28%
78 | CCOC(=O)N1CCN(C(C(=O)NC2CCCC2)C(C)C)CC1 (configuration not stated) | -14% | -23%
79 | Cc1nc(Cc2nnc(SC(C)C(=O)Nc3ccccc3)o2)cs1 (configuration not stated) | 8% | -1%
80 | CCCCCCC1CC(=CN(C)C)C(=O)O1 (configuration not stated) | 15% | 0%
81 | Cc1c(Cl)cccc1NC(=S)NC(=O)c1ccccc1 | -4% | 19%
82 | COc1ccc(CNC(=O)O[C@H]2CN(C(=O)OC(C)C)N(C(=O)OC(C)C)[C@@H]3CN(S(=O)(=O)c4ccc(C)cc4)C[C@]23O)cc1OC | 0% | -15%
83 | CCC(C)CN1C(=O)CSCC1(C)C(=O)NC(C)C (configuration not stated) | 0% | 0%
84 | NC(CCc1ccccc1)c1csc(Nc2nncc3ccccc23)n1 (configuration not stated) | 3%[18.4 µM] | -1%
85 | CC(=O)Nc1ccc(C(=O)CSc2nnc(-c3ccccc3F)n2CCc2ccccc2)cc1 | 9% | -8%
86 | Cc1c(C(=O)N2CCCC(C)(C(=O)NS(=O)(=O)C3CC3)C2)oc2ccccc12 (configuration not stated) | -16%[18.4 µM] | 10%
87 | COc1ccc(Cc2c(C3CCCCC3)nc3c4ccccc4ccn23)c(C)c1 | -24% | 35%[activator]
88 | O=C(Nc1ccccc1Cl)c1cc(C2CCCCN2C(=O)CCCc2ccccc2)on1 (configuration not stated) | -3% | -17%
89 | COc1ccc(CCNC(=O)Nc2nnc([C@H]3C[C@H](O)[C@@H](CO)O3)s2)cc1OC | 4% | 0%
90 | COCCCN1C(=O)C(CC(=O)NC(c2ccccc2)c2ccccc2)CC(C(=O)N2CCOCC2)=C1C (configuration not stated) | 5% | -20%
91 | COc1ncnc(-c2ccccc2)c1-c1ccccc1 | -2% | -24%
92 | COCCN1C(=O)CCC1(C)C(=O)Nc1ccc2c(c1)OCCO2 (configuration not stated) | 10% | -2%
93 | CC1=C(C(=O)N(C)C)CC(CC(=O)NCc2ccco2)C(=O)N1Cc1ccccc1 (configuration not stated) | 3% | -8%

Retrieved one by one from the entries so far, seven records:
# | molecule | RE007 growth inh | 2A StopGo
91 | COc1ncnc(-c2ccccc2)c1-c1ccccc1 | -2% | -24%
85 | CC(=O)Nc1ccc(C(=O)CSc2nnc(-c3ccccc3F)n2CCc2ccccc2)cc1 | 9% | -8%
86 | Cc1c(C(=O)N2CCCC(C)(C(=O)NS(=O)(=O)C3CC3)C2)oc2ccccc12 (configuration not stated) | -16%[18.4 µM] | 10%
81 | Cc1c(Cl)cccc1NC(=S)NC(=O)c1ccccc1 | -4% | 19%
84 | NC(CCc1ccccc1)c1csc(Nc2nncc3ccccc23)n1 (configuration not stated) | 3%[18.4 µM] | -1%
92 | COCCN1C(=O)CCC1(C)C(=O)Nc1ccc2c(c1)OCCO2 (configuration not stated) | 10% | -2%
90 | COCCCN1C(=O)C(CC(=O)NC(c2ccccc2)c2ccccc2)CC(C(=O)N2CCOCC2)=C1C (configuration not stated) | 5% | -20%

Source: PubChem BioAssay (National Center for Advancing Translational Sciences (NCATS))

Some of the compounds tested; count on the stated rates, not on these rows.
